Sa growth 42C: inhibitors of Staphylococcus aureus growth at 42 °C; AID 720641; S. aureus RN4220 growth, OD600, 20 h; stronger effect = lower value; relative growth, % (test concentration not listed); actives 0.53% (n = 170,000);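 active = growth at 42 °C up to 50% and 20 or more points under that at 30 °C, or under 10% at both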;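 note: 300 nL library stock went into each well; scaled to the means of positive and negative controls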
GIV Gai3 FP: inhibitors of GIV GBA-motif binding to rat Galpha-i3. actives 0.42% (n = 210,000). P08753. Galpha-i3/FITC-GIV peptide fluorescence polarization, 90 min; stronger effect = lower value; scaled: aluminum fluoride 0%, vehicle 100%. percent of control (FP), % (test concentration not listed). AID 1224905;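 active = replicate mean at 85% of control or lower, very high polarization wells dropped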;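 note: wells of about 15 µL received 100 nL stock; the first replicate is given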
Target sequence (P08753 whole entry, looked up): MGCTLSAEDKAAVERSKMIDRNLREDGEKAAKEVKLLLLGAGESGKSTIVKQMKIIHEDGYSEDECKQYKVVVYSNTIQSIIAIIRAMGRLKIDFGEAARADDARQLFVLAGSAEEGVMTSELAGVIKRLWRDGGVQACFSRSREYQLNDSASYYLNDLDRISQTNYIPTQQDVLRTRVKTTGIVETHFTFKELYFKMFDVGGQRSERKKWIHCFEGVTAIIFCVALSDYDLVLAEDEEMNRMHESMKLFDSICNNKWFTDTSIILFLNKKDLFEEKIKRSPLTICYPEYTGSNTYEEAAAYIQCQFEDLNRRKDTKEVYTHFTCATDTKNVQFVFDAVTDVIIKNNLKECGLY
HCMV UL50-53 inh: disrupts HCMV UL50-UL53 complex binding. HTRF UL50-UL53 interaction, normalized percent inhibition. actives 0.15% (n = 190,000). inhibition, % (concentration not given with the values);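 active = both replicates at 50% or more, plus weaker picks with an unusually low signal ratio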;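 note: stock transfer was 100 nL into about 20 µL; 0% = negative control wells and 100% = wells with untagged competitor protein; inactives centre near -12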
Sa growth 42C second temp: also measured in Sa growth 42C; calls as there; relative growth, %; measured here: growth at 30 °C;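 optical density after 20 h as mean of two plates; 100% = untreated growth and lower means inhibition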
Starred values were filed as active, the others as inactive; · = not tested or not shown; & = joins results of further samples.

SMILES	Sa growth 42C	Sa growth 42C second temp	GIV Gai3 FP	HCMV UL50-53 inh
O=c1c2cc(NC(=S)N3CCCCCC3)ccc2nc2n1CCCCC2	100	100	102	18
CCc1ccc(NS(=O)(=O)c2ccc3[nH]cc(C(=O)NC4CCCC4)c(=O)c3c2)cc1	101	43	99	-4
Nc1n[nH]c(S(=O)(=O)Cc2ccccc2)n1	93	86	110	-1
CSc1ccc(/C=C(\C#N)C(=O)NC2CCCCC2)cc1	66	106	106	15
CN=C(C)/C(C(=O)OC)=C(/O)c1ccccc1F	113	101	103	-1
CC1(C(=O)NC2CCCCC2)Cn2c(nc3ccccc32)C(=O)N1Cc1ccccc1 (stereo not given)	·	·	103	-14
N#CCC(=O)Nc1ccccc1Oc1cc(Cl)ccc1Cl	68	83	102	-15
COc1ccc(NC(=O)c2cc3cc(Br)ccc3oc2=O)c(OC)c1	·	·	103	-14
Cc1ccc(C(=O)Nc2nccc(-c3ccc4c(c3)OCCO4)n2)cc1	93	74	101	-22
CCOC(=O)c1oc2ccccc2c1Cn1ncc(Cl)c(Cl)c1=O	98	86	·	-29

Random excerpt: 6 records from the list.
SMILES	Sa growth 42C	Sa growth 42C second temp	GIV Gai3 FP	HCMV UL50-53 inh
CSc1ccc(/C=C(\C#N)C(=O)NC2CCCCC2)cc1	66	106	106	15
Nc1n[nH]c(S(=O)(=O)Cc2ccccc2)n1	93	86	110	-1
N#CCC(=O)Nc1ccccc1Oc1cc(Cl)ccc1Cl	68	83	102	-15
Cc1ccc(C(=O)Nc2nccc(-c3ccc4c(c3)OCCO4)n2)cc1	93	74	101	-22
CCOC(=O)c1oc2ccccc2c1Cn1ncc(Cl)c(Cl)c1=O	98	86	·	-29
O=c1c2cc(NC(=S)N3CCCCCC3)ccc2nc2n1CCCCC2	100	100	102	18

The results go on:
SMILES	Sa growth 42C	Sa growth 42C second temp	GIV Gai3 FP	HCMV UL50-53 inh
O=C1Nc2cc(C(=O)N3CCCC3)ccc2S/C1=C\c1ccccc1	123	79	107	·
O=C(/C=C/c1ccco1)OCCN1C(=O)c2ccccc2C1=O	121	93	·	-49
Cc1cc(C)c2c(-n3cccc3)nn(Cc3ccc(C(=O)NC4CCCC4)cc3)c2n1	·	·	104	-22
Cc1ccc(Cn2c(C(C)NC(=O)c3ccccc3)nc3ccccc32)cc1 (stereo not given)	108	64	111	4
Cc1nn2c(CN(C(=O)c3ccco3)c3ccccc3)nnc2c2ccccc12	91	81	102	-14
CCc1ccc(-c2csc(Nc3ccc(S(=O)(=O)Nc4cc(OC)nc(OC)n4)cc3)n2)cc1	102	62	102	·
CNC(=O)c1ccccc1NC(=O)CC1(CC(=O)O)CCCCC1	124	95	·	10
CC(C)Oc1ccc(CSC(=N)N)cc1	102	86	101	-12
Cc1ccc2c(=O)cc(C(=O)Nc3ccc(S(=O)(=O)N(C)Cc4ccccc4)cc3)oc2c1C	96	95	99	12
CCOC(=O)c1ccc2oc(=O)n(Cc3ccccc3)c2c1	72	101	102	·
CC(=O)Oc1ccc(N(C(C)=O)S(=O)(=O)c2cccs2)c(C)c1	80	97	·	-1
O=C1NC(=Nc2ccccc2)S/C1=C\c1ccc(C(=O)O)cc1	83	102	93	-36
O=C(CSc1nnc2ccc3ccccc3n12)c1ccc(F)cc1	104	81	105	-52
C=CCn1c(Cc2ccccc2)nnc1SCC(=O)N1CCc2ccccc21	91	90	103	-18
Cc1ccc(NC(=O)CSc2nc(=O)cc(N)n2Cc2ccco2)cc1	102	88	106	-23
Cc1ccc(S(=O)(=O)N2CCN(C(C)CC(=O)O)CC2)cc1 (stereo not given)	90	90	·	-12
Cn1cc(S(=O)(=O)N2CCCCCC2)cc1C(=O)NCc1ccccc1Cl	121	101	105	·
CCOC(=O)N1CCN(c2nc(-c3ccccc3)c3cc(C)ccc3n2)CC1	·	·	98	-13
C=CCNc1nc(C(=O)OCc2c(C)noc2C)cs1	95	92	·	-21
NNc1cccc(C(F)(F)F)c1	107	83	·	-32

3 compounds from above, limited to HCMV UL50-53 inh and Sa growth 42C second temp:
SMILES	HCMV UL50-53 inh	Sa growth 42C second temp
O=C(/C=C/c1ccco1)OCCN1C(=O)c2ccccc2C1=O	-49	93
Cc1cc(C)c2c(-n3cccc3)nn(Cc3ccc(C(=O)NC4CCCC4)cc3)c2n1	-22	·
Cc1ccc(Cn2c(C(C)NC(=O)c3ccccc3)nc3ccccc32)cc1 (stereo not given)	4	64

New compounds follow:
SMILES	Sa growth 42C	Sa growth 42C second temp	GIV Gai3 FP	HCMV UL50-53 inh
Cc1oc2c(CN(C)C)c(O)ccc2c(=O)c1-c1ccccc1Cl	99	92	·	-4
Cc1ccc(NC(=O)NC2CC2)cc1C	88	99	99	-10
CCc1c(C)nc2ncnn2c1Nc1cccc(OC)c1	·	·	102	-18
CCn1nc(C)c2c1c(=O)n(CCc1ccccc1)c(=O)n2CC(=O)NCC1CCCO1 (stereo not given)	·	·	101	1
O=C(O)CCCC(=O)Nc1ccc(Br)cc1	87	98	·	2
Cc1ccc(-c2noc(-c3cccn(CC(=O)Nc4ccc5c(c4)OCO5)c3=O)n2)cc1	·	·	118	-33
CC(C)n1cc(/C=C(\C#N)S(=O)(=O)c2ccccc2)c2ccccc21	106	93	101	-15
CCCNc1c(NS(=O)(=O)c2ccc(NC(=O)CC)cc2)c(=O)oc2ccccc12	103	92	107	-31
O=C(O)CN1C(=O)/C(=C\c2cc([N+](=O)[O-])ccc2Cl)SC1=S	·	·	103	-43
CCc1ccc(NC(=O)Cc2csc(C)n2)cc1	111	93	107	9
CCN1/C(=C/C2=CC(=O)CC(C)(C)C2)Sc2ccccc21	1.0*	2.4*	-24*	·
CCn1c(CN(c2ccc(F)cc2)S(C)(=O)=O)nnc1SC(C)C(=O)Nc1nccs1 (stereo not given)	·	·	101	-4
Cc1nc(-c2ccccc2)sc1CCNS(=O)(=O)c1ccccc1	119	78	99	·
Nc1oc(-c2ccc(Cl)cc2)cc1C(=O)c1ccc(Cl)cc1	108	79	·	-20
CCOc1ccc(CCNC(=O)CSc2cc(=O)n(C)c3ccccc23)cc1OCC	89	96	108	-2
COc1ccc(-c2noc(CSc3ccc(-c4ccc(F)cc4)nn3)n2)cc1OC	·	·	104	-19
COc1ccc(CCNS(=O)(=O)c2c(C)cc(C)c(-n3cnnn3)c2C)cc1OC	96	86	100	2
Cn1c(Cn2c(=O)sc3ccccc32)nnc1SCC(=O)Nc1ccc2c(c1)OCO2	97	92	107	-31
Cc1ccc(Sc2c(-c3ccc(Br)cc3)nc3ccccn23)cc1	·	·	107	-22
Cc1cc(C)c2c(C)c(C(=O)NCC3(N4CCN(C)CC4)CCCCC3)oc2c1	·	·	96	0
CCOC(=O)c1c(C)oc2ncnc(NC(C)CC)c12 (stereo not given)	·	·	101	-2
CN1CCN(c2nsc(NO)c2Nc2ccc(Br)cc2)CC1	115	95	·	-40
CN(Cc1ccccc1)C(=O)CSc1ncn[nH]1	98	96	·	-8
Cc1ccc2ncnc(Oc3ncccc3N)c2c1	104	77	98	6
Cc1ccc(NC(=O)[C@H](Cc2ccccc2)N2Cc3ccccc3C2=O)cc1F	88	90	105	-33
Cc1cccc(-c2cc(N3CCN(S(=O)(=O)c4ccc(Br)cc4)CC3)ncn2)c1	·	·	99	-3
CCOc1ccc2nc(SCC(=O)NC3CC3)sc2c1	104	103	97	-2
CCOC(=O)C1=C(C)C2C3C(=O)N(c4ccccc4C)C(=O)C3C1(C)C1C(=O)N(c3ccccc3C)C(=O)C21 (stereo not given)	·	·	101	-37
COCCOC(=O)C1=C(C)NC2=C(C(=O)CC(c3ccc(OC)cc3)C2)C1c1ccc(OC(C)=O)c(OC)c1 (stereo not given)	·	·	102	-60
Cc1c(CNCCc2ccc(S(N)(=O)=O)cc2)c(C(=O)O)c(C)n1Cc1ccc(Cl)cc1	113	81	105&101	0&-13
CC(C)C12CN3CC(C(C)C)(CN(C1)C3c1ccc(Br)cc1)C2=O (stereo not given)	·	·	115&103	-10
COc1ccccc1NC(=O)C1CCN(C(=O)c2ccccc2)CC1	79	89	99	6
COc1ccc(NC(=O)CSc2nc3ccccc3c(=O)n2Cc2ccc3c(c2)OCO3)c(OC)c1	101	83	101	2
CCC(c1nc2ccccc2c(=O)n1CCCn1ccnc1)N1C(=O)c2ccccc2C1=O (stereo not given)	117	95	101	-14
Cc1ccc(NC(=O)N(C)CCOc2ccccc2)cc1	106	86	·	1
Cc1cccc(NC(=O)CCc2c(C)nc3nc(CNC(=O)c4cccc(F)c4)nn3c2C)c1	109	89	102	-7
O=C(NCC1(c2ccccc2)CCOCC1)c1cccc(Cl)c1	102	90	99	-6
CS(=O)(=O)c1ccc(NC(=O)Cc2n[nH]c(=O)c3ccccc23)cc1	103	95	·	-14
O=C(NC1CCCc2ccccc21)C1CCN(c2nc3ccccc3nc2C(F)(F)F)CC1 (stereo not given)	·	·	102	-19
Cc1c(C(=O)NCc2ccccc2)oc2c1-c1[nH]ncc1CC2	102	83	104	-8
COC(=O)N[C@H](C(=O)N[C@@H](Cc1ccccc1)[C@@H](O)CN(Cc1ccc(-c2ccccn2)cc1)NC(=O)[C@@H](NC(=O)OC)C(C)(C)C)C(C)(C)C	106	105	105	-31
Cc1nc(Cc2nnc(SCC(=O)Nc3ccc(S(=O)(=O)N4CCCC4)cc3)o2)cs1	99	90	·	-12
Cn1c(=O)c2c(n3c4ccccc4nc13)NC(=O)CC2c1cccc(F)c1 (stereo not given)	97	96	106	·
O=C(NCc1ccccc1)c1ccc(=O)[nH]n1	84	89	100	-40
CCC(SC1=Nc2ccccc2C2=NC(c3ccccc3)C(=O)N12)C(=O)NCc1ccc(C)cc1 (stereo not given)	72	84	99	·
C=CCN1CC(O)=C(c2nc3ccc(C)cc3[nH]2)C1=N	·	·	106	24
Cc1cccc(CC(=O)Nc2c(C(N)=O)oc3ccccc23)c1	121	87	99	-37
Cc1ccc(Cl)cc1N1CCN(C(=O)c2sc3nc4n(c(=O)c3c2C)CCC4)CC1	93	84	99	-9
CCN(CC)C(=O)Cn1cnc2c(cnn2-c2cccc(Cl)c2)c1=O	83	85	100	-36
CCOC(=O)N1CCC(NC(=O)c2c(C)nn(-c3ccc(C)cc3)c2-n2cccc2)CC1	106	92	97	·
Following part.
SMILES	Sa growth 42C	Sa growth 42C second temp	GIV Gai3 FP	HCMV UL50-53 inh
O=C(O)c1nnn(Cc2ccccc2Cl)c1C(=O)O	·	·	100	-23
O=C(NCCCN1CCCC1)c1ccccc1Cl	88	83	101	-1
CCC(=O)N1CCc2cc(S(=O)(=O)CCC(=O)NCCc3ccc(S(N)(=O)=O)cc3)ccc21	·	·	108	-9
CCOC(=O)c1ccc(NC(=O)CON=c2c(C)nc3ccccc3nc2C)cc1	92	84	·	-18
CN(CC(=O)NN1C(=O)NC2(CCCCC2)C1=O)Cc1ccc(Cl)cc1	123	104	·	10
CN(C)CCN(C)Cc1ccccc1	114	101	102	-14
COC(=O)c1ccc(NC(=O)C2CC(=O)N(Cc3ccc4c(c3)OCO4)C(=Nc3ccc(F)cc3)S2)cc1 (stereo not given)	·	·	102	-8
Cc1cccc(C)c1NC(=O)CCN1CC(C)OC(C)C1 (stereo not given)	109	79	100	-4
COc1ccc(C(=O)NCCn2cc(SC(C)c3ccccc3)c3ccccc32)cc1 (stereo not given)	118	73	101	·
CC1(C)CC(=O)c2cc(C(=O)Nc3ccc(O)cc3)c(=O)[nH]c2C1	·	·	101	-20

A different layout for 6 compounds above.
Every second line gives: Sa growth 42C | Sa growth 42C second temp | GIV Gai3 FP | HCMV UL50-53 inh
- CN(CC(=O)NN1C(=O)NC2(CCCCC2)C1=O)Cc1ccc(Cl)cc1
  123 | 104 | · | 10
- CN(C)CCN(C)Cc1ccccc1
  114 | 101 | 102 | -14
- COC(=O)c1ccc(NC(=O)C2CC(=O)N(Cc3ccc4c(c3)OCO4)C(=Nc3ccc(F)cc3)S2)cc1 (stereo not given)
  · | · | 102 | -8
- Cc1cccc(C)c1NC(=O)CCN1CC(C)OC(C)C1 (stereo not given)
  109 | 79 | 100 | -4
- COc1ccc(C(=O)NCCn2cc(SC(C)c3ccccc3)c3ccccc32)cc1 (stereo not given)
  118 | 73 | 101 | ·
- CC1(C)CC(=O)c2cc(C(=O)Nc3ccc(O)cc3)c(=O)[nH]c2C1
  · | · | 101 | -20

The listing continues:
SMILES	Sa growth 42C	Sa growth 42C second temp	GIV Gai3 FP	HCMV UL50-53 inh
CC1CC(C)CN(C(=S)Nc2ccccc2)C1 (stereo not given)	110	115	105	3
Cc1ccc(CNC(=O)CN(c2ccc(C(C)C)cc2)S(=O)(=O)c2c(C)noc2C)cc1	·	·	95	4
CCSc1nc2nc3c(cn2n1)C(=O)CCC3	·	·	102	7
CC(C)CNC(=O)N1CCN(S(=O)(=O)c2ccc3c(ccn3C)c2)CC1	77	93	102	·
Nc1cc(C(=O)O)ccc1NCCCN1CCOCC1	90	93	104	·
N#Cc1ccccc1Cn1c(=O)n(-c2ccccc2)c(=O)c2c3c(sc21)CCC3	99	92	98	-3
Cn1cc(/C=N/NC(=O)C(O)c2ccccc2)c2ccccc21 (stereo not given)	102	109	106	-22
Fc1ccc(-c2nn3c(-c4cnccn4)nnc3s2)cc1Br	·	·	116	0

Records listed above that bear a hit mark in GIV Gai3 FP.
structure,Sa growth 42C,Sa growth 42C second temp,GIV Gai3 FP
CCN1/C(=C/C2=CC(=O)CC(C)(C)C2)Sc2ccccc21,1.0*,2.4*,-24*
